# NPYLR7 ag = activates Aedes aegypti NPYLR7 receptor. HEK293T NPYLR7/Galpha15, GCaMP6s calcium fluorescence. activation, % at 10 µM. 270,000 tested, 0.15% active; in the data active = activation above about 40%;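 note: 0% = vehicle and 100% = reference agonist at the receptor; some compounds past the cut are filed as inactive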
# NPYLR7 ag max-min = further read-out of NPYLR7 ag, marked with its call; activation, %; measured here: Max-Min RFU normalised activation; some inactives read as strong as hits;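 span of the calcium signal over five minutes; 0% = vehicle and 100% = native peptide agonist; compound fluorescence can raise it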
# Numbers without * were called inactive; & = joins results of further samples. These rows are one share of the data; the hit share may differ from the screen's.
SMILES,NPYLR7 ag,NPYLR7 ag max-min
COc1ccccc1C(=O)Nc1ccnn1C1CCN(C(=O)c2cnsn2)CC1,-3.6,-1.1
NC(=O)C1CCN(c2ccc3cccc(OCc4ccc(F)cc4)c3n2)CC1,8.9,6.3
Cc1ccc(S(=O)(=O)CCC(=O)OC2CC(C)OC2=O)cc1 (configuration not stated),-5.0,-6.5
CCCc1ncncc1C(=O)NCc1cccnc1N1CCN(C)CC1,-0.1,19.8
COc1ccc(-c2cc(N)n(-c3ccc(C(=O)N4CCCCC4)cc3)n2)cc1,2.0,3.4
CN(Cc1sc(N(C)C)nc1Cl)Cc1cccc2ncccc12,28.8,9.8
CCOC(=O)c1ccc(NC(=O)Cn2ccn3nc(-c4ccc(OC)c(OC)c4)cc3c2=O)cc1,20.2,11.3
Cc1ccc(C(=O)Nc2cccc(-c3nc4ccccc4o3)c2)cc1[N+](=O)[O-],2.5,-6.1
CC(=O)N1N=C(c2ccccc2NS(C)(=O)=O)CC1c1ccc2ncccc2c1 (configuration not stated),3.6,2.5
Cc1cc(C)cc(N2C(=O)NC3CC2(C)Oc2ccccc23)c1 (configuration not stated),0.3,0.3
O=C(CSc1nnc(-c2ccco2)o1)N1N=C(c2cccs2)CC1c1cccs1 (configuration not stated),-3.5,22.9
CCSc1ccc(C(=O)NC2CCC(=O)NC2)cn1 (configuration not stated),-1.7,-0.9
Cc1ccc(Cc2nc(N3CCCN(C(=O)COCc4ccccc4)CC3)c3c(C)nn(-c4ccc(F)cc4)c3n2)cc1,-6.4,-3.8
CC(=O)c1ccc(Oc2cc(C)nc(SCc3ccccc3C)n2)cc1,-1.0,13.3
COc1ccc(OC)c2sc(N(CCCN(C)C)C(=O)c3ccc([N+](=O)[O-])o3)nc12,0.8,-1.7
COC(=O)C1C(=O)c2c([nH]c(C(=O)OCC3CCCO3)c2C)CC1C (configuration not stated),12.0,3.0
O=C(Cc1nc2cc(-c3ccccc3)sc2c(=O)[nH]1)NCc1ccccc1,5.3,2.6
CCOC(=NCCCc1ccccc1)NC(=O)c1cccc(C(F)(F)F)c1,-1.3,-1.4
CNC(=O)C1=C(C)c2ccccc2C1,6.9,5.8
N#Cc1ccccc1NC(=O)CN1CCCCCC1,-0.3,-0.7
O=C(Nc1cccc(-c2cccc(-c3ccc4c(c3)OCCO4)n2)c1)c1ccc(Cl)nc1,6.8,3.8
COc1ccc(-c2csc(=Nc3ccccc3SC)n2NC(=O)CNc2ncc(C(F)(F)F)cc2Cl)cc1,-16.2,-23.7
CCOc1cc(-c2nccn2Cc2ccco2)ccc1O,11.0,4.2
Cc1cc(=O)n(-c2ccc(C(=O)NCC3CCCCC3)cc2)[nH]1,-0.7,-1.2
COc1ncccc1NC(=O)N(C)C(C)C1(C)CC1 (configuration not stated),-16.6,-17.4
CCOc1ccccc1C(=O)NNC(=O)COc1cc(C)cc(C)c1,-2.7,-11.5
COC(=O)c1c(C)[nH]c(C2=NNC(=NC3CC3)SC2)c1C,19.4,20.9
CCOC(=O)N1CCC(NC(=O)COC(=O)c2cc3ccccc3s2)CC1,1.1,-2.7
COc1cccc(C(=O)N2CCc3ccccc3C2c2ccccc2Cl)c1 (configuration not stated),18.0,12.2
C1=CCC(CN2CCN(Cc3ccco3)CC2)CC1 (configuration not stated),9.8,9.2
C=CCNC(=S)NN=C1c2ccccc2-c2ccccc21,-7.9,-8.7
CC(=O)Nc1ccc(CNC(=O)c2cc(F)ccc2F)cc1,-0.1,1.0
COC(=O)n1c(=O)oc2cc(Br)ccc21,-2.9,-4.4
CN(Cc1ccccc1C(F)(F)F)C(=O)CCNS(C)(=O)=O,9.5,7.2
C=CCNC(=O)CC1Sc2ccc(C(F)(F)F)cc2NC1=O (configuration not stated),19.8,9.7
Cc1ccc(C(=O)Nc2c3c(nn2-c2cccc(C)c2C)CS(=O)(=O)C3)cc1C,-0.4,-2.4
O=C(CS(=O)(=O)c1ccccc1)N(Cc1ccccn1)c1nc2ccccc2s1,-4.7,-11.1
Cc1oc(-c2ccco2)nc1CC(=O)NC1CCc2ccccc21 (configuration not stated),1.8,2.3
O=C1NC(=S)NC1=Cc1ccccc1Cl,12.6,4.6
N#Cc1ccsc1NC(=O)CN1CCN(c2ccc(F)cc2)CC1,-4.0,-4.4

# Among those listed so far, these have a cyano group.
SMILES,NPYLR7 ag,NPYLR7 ag max-min
N#Cc1ccccc1NC(=O)CN1CCCCCC1,-0.3,-0.7
N#Cc1ccsc1NC(=O)CN1CCN(c2ccc(F)cc2)CC1,-4.0,-4.4

# Going on with the list:
SMILES,NPYLR7 ag,NPYLR7 ag max-min
CN1CCN(C)C(CNC(=O)N(C)Cc2cc3ccccc3o2)C1 (configuration not stated),5.9,3.7
CC(=O)c1ccc2c(c1)c1cc(Cl)ccc1n2C,-0.5,-7.9
Cc1cc(CNC2CCC(O)CC2)c(C)n1-c1ccnn1C(C)C (configuration not stated),10.8,8.7
N#C/C(=C\c1ccccc1OCc1ccc(C(=O)O)cc1)c1ccccc1,1.6,-1.3
Cn1c(=O)c2c(ncn2Cc2nc3ccccc3o2)n(C)c1=O,-0.2,16.3
Cc1[nH]cnc1C(=O)NC(c1ccncc1)c1ccc(Cl)cc1 (configuration not stated),1.0,0.7
O=C(NCC(F)(F)F)C1CSCN1C(=O)c1cc2c(s1)CCCCC2 (configuration not stated),7.5,5.6
COc1cc(N2CCCC(N3CCCC3=O)C2)ncn1 (configuration not stated),-3.9,-6.5
Cc1ccc(-c2noc(COc3cc4oc(=O)cc(C)c4cc3Cl)n2)cc1,1.3,3.7
COCCN(CC(=O)N(CCc1c[nH]c2ccccc12)Cc1ccc(C(F)(F)F)cc1)C(=O)Nc1cccc(C#N)c1,24.9,22.6
CC1(C)CC2CC(C)(CN2C(=O)CN2CCN(C/C=C/c3ccccc3)CC2)C1 (configuration not stated),4.0,1.3
CC(=O)N1CCN(Cc2nnnn2-c2cccc(F)c2)CC1,-2.1,-0.9
CC(=O)NCc1ccc(C(=O)N(C)Cc2ccc(Cl)s2)cc1,2.6,0.9
C=CCNC(=S)Nc1ccc(CP(=O)(OCC)OCC)cc1,-1.5,-6.7
CCCn1c(=O)n(CC(=O)N(C)CC(=O)Nc2cc(C)ccc2C)c2ccccc21,9.0,5.8
CCCN(CC(=O)Nc1cc(-c2ccccc2)nn1-c1ccccc1Cl)C(=O)NC12CC3CC(CC(C3)C1)C2,13.5,19.1
CCN(C(=O)C(C)S(=O)(=O)Cc1c(Cl)cccc1Cl)c1ccccc1 (configuration not stated),8.5,2.4
CCN(CC)CCOc1ccc2c(c1)C(=O)c1cc(OCCN(CC)CC)ccc1-2,-0.8,-10.3
COCc1c(C(=O)Nc2ccc(NC(=O)C(C)(C)C)c(C)c2)noc1C,-0.6,-3.7
O=C(c1ccnc(NC2CC2)c1)N1CCCC1c1ccc2c(c1)OCCO2 (configuration not stated),4.4,2.2

# The final 3 entries of the part before open the next one:
SMILES,NPYLR7 ag,NPYLR7 ag max-min
CCN(CC)CCOc1ccc2c(c1)C(=O)c1cc(OCCN(CC)CC)ccc1-2,-0.8,-10.3
COCc1c(C(=O)Nc2ccc(NC(=O)C(C)(C)C)c(C)c2)noc1C,-0.6,-3.7
O=C(c1ccnc(NC2CC2)c1)N1CCCC1c1ccc2c(c1)OCCO2 (configuration not stated),4.4,2.2
C(=NOCc1nc2c3cnn(-c4ccccc4)c3ncn2n1)c1ccccc1,-13.0,-19.5
Brc1c(C2C3CC4CC(C3)CC2C4)nc2ccccn12 (configuration not stated),6.4,3.5
COCCCN(Cc1c(-c2cccc(C)c2)noc1N1CCOCC1)C(=O)c1ccco1,7.4,12.1
N#Cc1cccc(OC2CC3CCC(C2)N3C(=O)c2ccc(CSc3nc4ccccc4s3)cc2)c1 (configuration not stated),-15.6,-17.2
O=C(Cn1c(=O)[nH]c(=O)c2ccccc21)N1CCN(c2ncc(C(F)(F)F)cc2Cl)CC1,-2.0,-3.3
Cc1ccc(-n2c(CCC(=O)OCC(N)=O)nc3ccccc3c2=O)cc1,-2.1,-3.4
COCCc1ccc(-c2csc(NC(=O)CCNC(=O)c3ccc(F)cc3F)n2)cc1,4.3,1.4
Cc1cccc(C(=O)N2N=C(C3CCCCC3)CC2(O)C(F)(F)F)c1O (configuration not stated),2.4,0.7
CC(=O)NC(Oc1ccc(/C=C2\C(=O)N(c3ccccc3)N=C2C)cc1)C(Cl)(Cl)Cl (configuration not stated),-5.7,-8.1
Nc1nc(N2CCN(c3ccccc3O)CC2)c2[nH]cnc2n1,7.1,6.6
Cc1[nH]ncc1CCCNC(=O)CCNC(=O)CC1CC2CCC1C2 (configuration not stated),-6.1,-5.6
CN(c1ccccc1)N1CC(C(=O)NCCNc2ccc([N+](=O)[O-])cn2)CC1=O (configuration not stated),-13.5,-19.0
CC[C@H]1CN(C(=O)Cc2c[nH]c(=O)n(C)c2=O)CC[C@@]1(C)O,6.5,1.7
CC1CC(C)CN(CC(=O)NCc2ccc(Cl)cc2Cl)C1 (configuration not stated),-3.4,-8.2
O=C(NCC(F)(F)C(F)(F)F)c1ccc(-c2ccc3c(c2)OCO3)s1,3.5,0.2
COc1cn(CC(=O)Nc2ccccc2)c(CSc2ncccn2)cc1=O,-3.8,-9.4
CN1C(=O)c2ccccc2N2C(=O)CCC12C(=O)NCc1cccc(Cl)c1 (configuration not stated),-3.8,-8.1
CC1(C)N=C(c2ccccc2)C(=S)N1C(=O)c1ccc(Br)cc1,2.8,-6.6
Cc1ccc(CN(Cc2ncc(C(C)(C)C)o2)C(C)C)s1,0.2,8.0
CN(CCO)P1(=O)C=C(c2ccccc2)SC(c2ccccc2)=C1,1.4,5.8
O=C(NCC1CCCO1)c1cc(NC(=O)C(Cl)c2ccccc2)ccc1N1CCc2ccccc2C1 (configuration not stated),-4.5,1.0
Cc1ccc(NC(=S)NCc2ccc3c(c2)OCO3)nc1,12.2,8.0
CC(C)Nc1ccc(C(=O)NCCc2ccccc2)cn1,3.0,4.8
CC(=O)Nc1cccc(NC(=O)c2c(-c3c(Cl)cccc3Cl)noc2C)c1,5.1,5.0
COc1cccc(-c2cc(C(=O)NC3CCCCNC3=O)n3nc(C(C)(C)C)cc3n2)c1 (configuration not stated),-5.7&-0.8,-5.4&10.0
CC1=C(C(=O)N(C)C)C(c2cccc(Oc3ccccc3)c2)NC(=S)N1 (configuration not stated),7.6,5.8
Cc1ccc2nc(C)c(C(=O)N3CCCN(c4ccncc4C)CC3)n2c1,-3.2,-5.3
Cc1c(C(=O)OC2CCC3CN(C(=O)OC(C)(C)C)CC32)cnn1C (configuration not stated),8.5,8.6
O=C(COCc1ccccc1)N1CCN(Cc2ccc(-c3noc(-c4cccs4)n3)cc2)CC1,4.6,1.0
CCN1CCN(C(=O)c2ccccc2N2CCC(NC(=O)c3ccc(C(F)(F)F)cc3)CC2)CC1,-0.4,8.4
O=C(c1noc2c1CCCC2)N1CCC(CO)(Cc2ccccc2C(F)(F)F)CC1,6.1,0.9
CC(=O)C(C#N)C(=O)Nc1cc(Br)ccc1Br (configuration not stated),-2.2,14.8
COCCNC(=O)c1cc2sccc2n1Cc1ccc2c(c1)OCO2,6.3,4.3
OCC1(CCCc2ccccc2)CCNCC1,0.5,-1.0

# By substructure: those above containing a furan ring, fused or not (7)
SMILES,NPYLR7 ag,NPYLR7 ag max-min
O=C(CSc1nnc(-c2ccco2)o1)N1N=C(c2cccs2)CC1c1cccs1 (configuration not stated),-3.5,22.9
COc1ccc(OC)c2sc(N(CCCN(C)C)C(=O)c3ccc([N+](=O)[O-])o3)nc12,0.8,-1.7
CCOc1cc(-c2nccn2Cc2ccco2)ccc1O,11.0,4.2
C1=CCC(CN2CCN(Cc3ccco3)CC2)CC1 (configuration not stated),9.8,9.2
Cc1oc(-c2ccco2)nc1CC(=O)NC1CCc2ccccc21 (configuration not stated),1.8,2.3
CN1CCN(C)C(CNC(=O)N(C)Cc2cc3ccccc3o2)C1 (configuration not stated),5.9,3.7
COCCCN(Cc1c(-c2cccc(C)c2)noc1N1CCOCC1)C(=O)c1ccco1,7.4,12.1
